# Env fusion inh: inhibitors of HIV-1 Env-driven cell-cell fusion, primary screen, HeLa-JRFL effector, CEM21 target cells, luciferase. inhibition, % at 12.3 µM. 1.1% of 360,000 active. AID 651610, 2012;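 active = mean replicate inhibition score of at least 50 and every replicate individually at or above 50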;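 also: 0% = plate neutral controls and 100% = maraviroc near 300 nM; one replicate is shown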
# UUG fidelity: modulators of yeast start codon fidelity, primary screen, whole organism, S. cerevisiae, single point, plate reader | activity score, % at 18.7 µM | S. cerevisiae UUG-firefly luciferase reporter, luminescence/redox ratio | AID 602363, 2012 | 0.13% of 350,000 active;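 active = replicate mean at a twofold rise or more, about +100% in these data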;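 also: firefly luciferase made from a UUG start codon reports start codon fidelity; reporter light over untreated wells divided by growth signal over untreated wells; some hits fall short of that in this replicate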
# Rce1 inhib: yeast Rce1p protease inhibitors, primary screen, biochemical, fluorescence, cell-free homogeneous. CAAX prenyl protease 2 (Saccharomyces cerevisiae (strain ATCC 204508 / S288c)), Q03530. yeast membranes, quenched prenylated peptide cleavage fluorescence. calls only. 0.27% of 290,000 active;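 active = fall in fluorescence gain of 50% or more versus controls, with final raw signal at or below 3038400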;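 also: plate controls were neutral control wells for no effect and wells lacking membranes for full effect; tested at 10 µM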
# Target sequence (Q03530 whole entry, looked up): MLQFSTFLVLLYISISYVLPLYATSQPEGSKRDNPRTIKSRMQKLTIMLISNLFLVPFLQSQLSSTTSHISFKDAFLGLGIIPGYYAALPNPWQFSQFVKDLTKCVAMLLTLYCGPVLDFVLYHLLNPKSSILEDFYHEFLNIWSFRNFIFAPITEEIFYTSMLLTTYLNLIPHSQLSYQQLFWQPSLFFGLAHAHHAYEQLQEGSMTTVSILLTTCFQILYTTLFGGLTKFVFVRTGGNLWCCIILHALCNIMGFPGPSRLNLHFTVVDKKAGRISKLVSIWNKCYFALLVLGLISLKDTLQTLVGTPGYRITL
# CSC inhib: cancer stem cell viability inhibitors, primary screen, luminescence | 1.1% of 300,000 active | inhibition, % at 7.5 µM | cancer stem cell-like cells viability;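 active = mean at 75% or more and at least half the replicates too; tested in HMLE shEcad cells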;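 also: 0% = median of negative and 100% = median of positive control wells; the first replicate is given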
# MT1-MMP act inh: blockers of MT1-MMP proenzyme processing, primary screen, HT1080 RFP-PRO-GFP cells, GFP/RFP fluorescence; Matrix metalloproteinase-14 (Homo sapiens), P50281; GFP/RFP ratio fluorescence, overnight; percent of plate control window, DMSO zero; GFP/RFP ratio change, % at 20 µM; 0.061% of 360,000 active; AID 651647, 2012;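 active = GFP/RFP ratio change of at least 30% with cell ATP level not reduced by more than half and red fluorescence within 50% of control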; also: strong numbers were not always called active
#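 Material: RFP-PRO-GFP reporter HT1080 cells. Dosing: single-point 20 µM compound, 1% DMSO. Controls: DMSO and RFP-L50D-GFP cell wells. Timing: cells overnight before dosing, compound overnight, 37 °C, 5% CO2. Measure: GFP/RFP fluorescence ratio.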
# PABP polyA inh: PABP poly(A) RNA binding inhibitors, primary screen, biochemical, fluorescence polarization, uHTS | Polyadenylate-binding protein 1 (Homo sapiens), P11940 | inhibition, % at 35 µM | AID 2014, 2009 | 1% of 290,000 active;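 active = 50% or more with normal probe brightness, or confirmed in later tests; about a fifth of its hits are not listed in these tables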;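 also: calls also rest on retests at 20 µM and on dose response follow-up; controls were probe without protein and protein plus probe with vehicle; some compounds called inactive have numbers as strong as hits; many hits fall short of the cut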
# Target sequence (P11940 whole entry, looked up): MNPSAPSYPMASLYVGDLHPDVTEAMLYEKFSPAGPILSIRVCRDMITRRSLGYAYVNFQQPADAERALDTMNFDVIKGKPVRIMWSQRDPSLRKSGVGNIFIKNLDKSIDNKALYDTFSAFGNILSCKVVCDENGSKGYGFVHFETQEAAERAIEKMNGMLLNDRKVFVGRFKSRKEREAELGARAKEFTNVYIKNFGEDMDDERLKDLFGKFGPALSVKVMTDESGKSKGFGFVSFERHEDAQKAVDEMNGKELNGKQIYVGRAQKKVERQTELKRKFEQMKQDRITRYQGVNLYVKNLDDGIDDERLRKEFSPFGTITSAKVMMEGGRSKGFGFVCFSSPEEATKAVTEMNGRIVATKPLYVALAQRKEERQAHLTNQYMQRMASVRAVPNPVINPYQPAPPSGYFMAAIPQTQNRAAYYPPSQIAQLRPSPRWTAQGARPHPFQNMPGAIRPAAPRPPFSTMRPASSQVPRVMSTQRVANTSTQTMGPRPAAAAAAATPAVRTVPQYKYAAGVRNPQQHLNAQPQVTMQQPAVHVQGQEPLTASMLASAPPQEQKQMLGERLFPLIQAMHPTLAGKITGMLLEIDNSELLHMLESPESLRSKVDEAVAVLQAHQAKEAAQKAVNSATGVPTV
# eIF4H inh: human eIF4H binding inhibitors, primary screen, translation initiation inhibitor project, biochemical, uHTS, fluorescence polarization; inhibition, % at 35 µM; eIF4H fluorescence polarization binding assay; 0.94% of 290,000 active; AID 2012, 2009; Eukaryotic translation initiation factor 4H (Homo sapiens), Q15056;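 active = 50% or more with normal probe brightness, or confirmed in later tests; about a fifth of its hits are not listed in these tables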;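 also: calls also rest on retests at 20 µM and on dose response follow-up; 0% = protein and probe with vehicle and 100% = probe without protein; strong numbers were not always called active; many hits fall short of the cut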
# eIF4H inh retest: second read-out of eIF4H inh, no call of its own (marks repeat the call); inhibition, %; compound at 20 µM; confirmation average;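 mean of two retest wells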
# PABP polyA inh retest: further read-out of PABP polyA inh, marked with its call; inhibition, %; compound at 20 µM; confirmation repeats;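 mean of two retest wells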
# MT1-MMP act inh RFP: second read-out of MT1-MMP act inh, no call of its own (marks repeat the call); RFP signal change, %; measured here: RFP expression control read;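 0 = vehicle wells; hits needed this value within 50% of zero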
# An asterisk follows results filed as active; i = inactive; . = no result given; & = joins results of further samples; ! = not active in a repeat.
SMILES,Env fusion inh,UUG fidelity,Rce1 inhib,CSC inhib,MT1-MMP act inh,MT1-MMP act inh RFP,PABP polyA inh,eIF4H inh,others
CC1=C(C#N)C(c2ccccc2O)C(C#N)=C(C)N1,8.9,.,i,-21.4,-3.5,-3.3,21.3,22.2,
CC(C)NC(=O)Nc1ccc2c(c1)C(=O)N([C@H](C)CO)C[C@H](C)[C@@H](CN(C)S(=O)(=O)c1ccccc1)O2,-3.2,6.3&5.4,.,-13.6,9.8,6.4,.,.,
CC(C)CNC(=O)Nc1ccccc1F,8.8,.,i,-2.0,0.1,-1.3,-6.9,-3.8,
CCOC(=O)C(O)(CC(=O)c1ccc(OC)cc1)C(F)(F)F (stereo unspecified),-23.7,-17.0,i,3.0,-7.2,-2.3,-3.4,-7.7,
CN(C)C(=O)c1ccc(=O)n(Cc2ccc(Cl)cc2Cl)c1,10.0,-2.5,i,-17.4,1.1,0.7,9.1,-3.4,
O=C(CCc1ccc(S(=O)(=O)NCc2ccccc2)cc1)NCc1ccco1,.,1.0,i,13.5,2.3,2.4,-1.5,-6.5,
FC(F)(F)c1cccc(NC(=S)N2CCCCCC2)c1,19.0,-20.2,i,.,3.5,6.3,-46.1,-0.2,
O=C(Nc1cccc(-n2cccn2)c1)C1CCCN(Cc2cccc(F)c2F)C1 (stereo unspecified),-3.6,-16.9,i,-9.8,-1.9,-1.3,-12.7,-13.2,
COc1ccc(CN=C(NS(=O)(=O)c2cccs2)SC)cc1,.,.,i,-0.4,-0.1,-5.3,-13.6,-8.7,
O=C(Cc1ccccc1[N+](=O)[O-])NCc1ccc(Cl)cc1,.,-6.8,i,-7.7,11.1,9.7,-0.5,-3.5,
Cc1ccc(-c2nc(C3CCCN(S(=O)(=O)c4ccc(C)cc4)C3)no2)cc1 (stereo unspecified),4.8,-19.0,i,10.5,4.0,-7.1,28.3,6.6,
Cc1ccccc1N1CCN(Cc2c[nH]c3ccccc23)CC1,.,-6.5,i,30.4,-5.6,0.1,17.3,16.3,
CN1CCN(c2ccc(NC(=O)c3ccc(C(F)(F)F)cc3)cn2)CC1,8.9,.,i,8.7,-0.2,-8.7,3.8,2.2,
CC(=O)Nc1ccc(S(=O)(=O)N[C@@H](C)C(=O)NC2CCCc3ccccc32)cc1 (stereo partly specified),-11.1,-5.7,.,-4.2,1.0,3.1,.,.,
CCc1ccc(NC(=O)N(CCOC)C2CCN(C(C)=O)CC2)cc1,2.8,-15.2,i,-6.3,3.3,-1.6,8.0,1.6,
COc1ccc(NC(=O)CSc2nnc(CNC(=O)c3ccco3)n2-c2ccccc2OC)cc1,4.3,-21.1,.,-5.5,-1.1,1.1,-4.2,-5.9,
Brc1ccc(CSc2nccn2-c2ccccc2)cc1,.,-19.3,i,5.2,3.3,-4.3,2.1,-8.5,
Cc1ccc(NC(=O)CN2CCN(Cc3ccccc3)CC2)cc1Cl,17.8,.,i,8.6,3.0,0.2,.,.,
Cc1ccc(CNC(=O)C(OC(=O)c2cccs2)C(C)C)cc1 (stereo unspecified),12.5,-18.2,i,-5.6,-2.0,0.3,-1.3,10.4,
CCCc1c(O)nc(SC2CC(=O)N(c3ccc(C)c(Cl)c3)C2=O)[nH]c1=O (stereo unspecified),-19.6,-2.1,i,-5.3,1.4,3.8,.,.,
CCOC(=O)C1=C(c2ccccc2)N=c2s/c(=C\c3ccc(O)cc3)c(=O)n2C1c1cccs1 (stereo unspecified),.,-10.6,i,15.2,-25.5,-2.5,24.0,37.3,
O=C(CN1CCCC(O)C1)N1c2ccccc2Sc2ccc(C(F)(F)F)cc21 (stereo unspecified),.,0.4,i,-3.9,-2.2,-6.0,7.5,-5.2,
CCOc1ccc(CCNC(=O)C2CCCN(S(=O)(=O)N3CCCCC3)C2)cc1OCC (stereo unspecified),10.8,10.8,.,.,1.8,1.5,.,.,
O=C(Nc1nc2ccccc2c2nc3ccccc3n12)c1ccc(F)cc1,.,.,i,2.2,.,.,-14.2,-5.4,

# Part of the list above in order of heavy-atom count, falling.
SMILES,Env fusion inh,UUG fidelity,Rce1 inhib,CSC inhib,MT1-MMP act inh,MT1-MMP act inh RFP,PABP polyA inh,eIF4H inh,others
COc1ccc(NC(=O)CSc2nnc(CNC(=O)c3ccco3)n2-c2ccccc2OC)cc1,4.3,-21.1,.,-5.5,-1.1,1.1,-4.2,-5.9,
Cc1ccc(-c2nc(C3CCCN(S(=O)(=O)c4ccc(C)cc4)C3)no2)cc1 (stereo unspecified),4.8,-19.0,i,10.5,4.0,-7.1,28.3,6.6,
O=C(Cc1ccccc1[N+](=O)[O-])NCc1ccc(Cl)cc1,.,-6.8,i,-7.7,11.1,9.7,-0.5,-3.5,

# Further structures:
SMILES,Env fusion inh,UUG fidelity,Rce1 inhib,CSC inhib,MT1-MMP act inh,MT1-MMP act inh RFP,PABP polyA inh,eIF4H inh,others
CCC(C)(C(=O)NC1CCCC1)N(C(C)=O)c1ccc(C)cc1 (stereo unspecified),-47.2,-12.6,i,-0.8,-0.9,0.8,-9.8,-8.8,
Cc1ccnc(NC(=O)Nc2cccc(F)c2)c1,-421.3,-33.1,i,2.2,0.6,-3.8,-6.0,-3.3,
O=C(O)C1(c2ccccc2)CCN(S(=O)(=O)c2ccc(Cl)s2)CC1,-9.9,-7.6,i,-13.8,-1.9,2.2,14.3,-0.8,
CCN(CC)c1ccc(NC(=O)COc2ccc(-n3cnnn3)cc2)cc1,i,-17.6,.,-11.5,-1.1,0.0,.,.,
CCOC(=O)N1CCC2(CC1)C(C#N)=C(N)OC1=C2C(=O)CC(C)(C)C1,.,.,i,-8.7,-0.4,-2.0,4.2,1.9,
CCOC(=O)C1=C(CS(=O)(=O)c2ccccc2)NC(=O)NC1c1ccccc1OCC (stereo unspecified),-10.0,-2.5,i,12.2,-0.1,0.5,-2.9,-3.5,
O=S(=O)(NCCCN1CCOCC1)c1ccc(Cl)cc1,0.1,-15.5,i,6.9,-2.2,-0.6,5.7,-1.0,
Nc1c(C(=O)NCc2ccco2)nnn1Cc1ccccc1,-84.1,-17.7,i,-0.5,5.5,6.2,5.3,5.8,
Cc1ccc(CNC(=O)C2CC(=O)OC23CCCC3)c(C)c1 (stereo unspecified),-9.5,-14.2,i,-15.2,-2.2,-6.5,59.8,4.4,eIF4H inh retest=-10.4;PABP polyA inh retest=4.5
CCC(C)(C)n1nnnc1C(c1ccc(C)cc1)N1CCSCC1 (stereo unspecified),.,-9.9,i,.,1.5,-1.4,3.2,6.4,
CCN(CC)CCCNC(=S)N1CCN(c2nc3ccccc3n2CC)CC1,-8.0,-11.2,i,-9.2,-0.8,0.6,-7.0,3.0,
Cn1c(COc2nnc(-c3ccc(Cl)cc3)c3ccccc23)nc2ccccc21,-51.3,-8.5,i,-6.4,-0.9,0.5,9.7,3.8,
OC[C@@H]1CN(Cc2ccncc2)C[C@H](n2cnc3c(NC4CC4)ncnc32)O1,26.8,-5.5,.,.,0.8,2.0,.,.,
C/C(N)=C(/C#N)C(=O)CSc1nc(C2CCCCC2)n(-c2ccccc2)n1,67.5*!,-1.1,.,-9.3,1.8&-0.4,0.0&-1.8,-1.1,-1.6,
CCOC(=O)/C(=N\Nc1ccccc1Cl)N(C)C1CCCCC1,15.1,.,i,8.5,2.0,10.1,-15.3,-5.4,
O=C(c1ccccc1)c1cccn1CC(=O)N1CCN(c2ccccc2)CC1,.,11.5,i,-9.7,2.4,2.0,-4.0,-3.8,
CN(CCOc1ccccc1)C(=O)c1ccc2c(c1)OCO2,.,-1.3,.,-11.9,0.6,2.4,.,.,
COc1ccc(F)cc1S(=O)(=O)NCC1CCCO1 (stereo unspecified),-5.7,-11.9,i,-4.1,-2.4,-0.6,-3.1,-4.2,
CCOC(=O)Cn1nc(C)c(NC(=O)COc2ccccc2)c1C,6.3,.,i,.,-0.1,7.0,1.1,7.6,
CC1(C)Cc2c(ccc3ccccc23)C2=C(C(=O)N3CCCC3)C(=O)C(=O)N21,4.3,.,i,.,-0.5,0.8,-10.5,-0.5,
CCCCCSc1nc2c(c(=O)[nH]c(=O)n2C)n1C(C)C,-37.2,-7.5,i,-10.7,3.3,-2.0,-19.2,-8.2,
CC1CCN(C(=O)COC(=O)c2cc(=O)[nH]c3ccccc23)CC1,-39.4,-20.4,.,.,0.5,7.4,.,.,
Cc1cc(=O)n2nc(N3CCCC(C(=O)Nc4cccc(C)c4C)C3)sc2n1 (stereo unspecified),6.0,-17.1,.,.,5.6,6.6,.,.,
CCOC(=O)N1CCN(C(=O)c2cc(COc3ccc(OC)cc3Cl)on2)CC1,.,8.3,i,7.2,-3.1,-6.8,-3.0,-21.0,
COc1ccc(C(C(=O)NC2CCCC2)N(C(=O)c2snc(C(N)=O)c2N)c2ccccc2OC)cc1OC (stereo unspecified),0.0,7.5,i,-1.3,-3.4,-1.3,-3.5,-6.1,
Cc1cc(C)c2nc(N(CCN(C)C)C(=O)c3ccc4ccccc4c3)sc2c1,11.8,-9.8,i,21.0,0.3,4.2,4.1,-15.8,
O=[N+]([O-])c1ccc2[nH]ncc2c1,2.0,.,i,-8.0,0.1,0.9,-7.8,0.4,
C1CCc2nnc(C3CC3)n2CC1,0.3,.,i,6.4,-3.9,2.3,-12.9,-8.3,
CCOC(=O)C(=O)c1c(-c2ccccc2)nc2ccccn12,7.8,.,i,34.7,-0.7,-4.4,5.8,3.4,
C/C(=N\NC(=O)COc1ccccc1)c1ccc(O)cc1,7.5,.,i,0.1,2.0,-0.3,-1.0,-0.9,
CCn1cc(CN2CCC(n3nccc3NC(=O)c3ccc(OC)cc3)CC2)cn1,6.2,-7.4,i,13.5,3.2,3.3,27.6,6.5,
O=S(=O)(Nc1ccc2c3c(cccc13)CC2)c1ccccc1,-20.7,-20.6,.,.,-2.7,-2.1,.,.,
CCC(=O)N/N=C(\C)CC(=O)Nc1cccc([N+](=O)[O-])c1,-12.4,.,i,-19.9,2.2,3.9,-1.1,5.9,
COc1ccc(OC)c(S(=O)(=O)N2CCCCC2C(=O)N2CCN(c3ccccn3)CC2)c1 (stereo unspecified),10.1,5.4,i,30.9,-0.2,2.2,-3.0,5.2,
Cc1cccc(C(=O)OC(C)C(=O)NC2CCCc3ccccc32)c1O (stereo unspecified),-0.5,.,i,10.8,1.9,-0.2,.,.,
CC(C)NC(=O)CN1C(=O)c2ccccc2S1(=O)=O,-1.7,.,i,-8.1,5.2,6.1,0.3,-0.5,
COc1ccc(-n2nc3c(N4CCC(C(=O)NCCc5ccco5)CC4)nnc(C)c3c2C)cc1,-0.9,-5.6,i,-19.2,4.8,1.3,5.4,-2.1,
COc1cccc(/C=C/c2ccncc2)c1OC,.,-21.6,i,-3.9,-3.9,-3.4,-2.1,-0.1,
CC(C)CNc1oc(-c2ccccc2Cl)nc1C#N,-12.2,.,i,-0.3,2.3,0.7,-4.9,-2.0,
CC1CCCC(C)N1CCCNC(=O)C1CCCN(S(=O)(=O)N2CCCCC2)C1 (stereo unspecified),10.2,4.5,.,.,0.8,0.8,.,.,
COc1cc(OC)cc(-c2oc(=O)c3cc(OC)c(OC)cc3c2C(F)(F)F)c1,10.8,-18.8,.,1.0,0.9,-5.1,.,.,
CCN1CCN(C(=O)c2cc(S(=O)(=O)N3CCCCC3)ccc2Cl)CC1,-18.6,-19.4,i,5.3,-2.1,2.9,-3.4,7.8,

# An excerpt, so the mix of outcomes need not match the whole.
